# Bioassay records deposited in PubChem BioAssay by several laboratories.
# Mtb growth – M. tuberculosis H37Rv growth inhibitors, H37Rv strain (AID 1626); 0.95% of 220,000 active; M. tuberculosis H37Rv growth inhibition; higher % means a stronger effect; inhibition, % at 10 µM, or IC50 in µM where a hit was titrated;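 active means confirmed in a dose series; inconclusive means inhibition above 80% but not taken into the dose series; inactive means below 80% or under 30% at every dose of the series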;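 further: bacteria incubated seven days before Alamar blue readout; 0% = bacteria only wells and 100% = bacteria with antibiotic wells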
# Arbovirus anti – antivirals against arbovirus infection; arbovirus infection cell-based antiviral screen; inhibition, % at 10 µM; 0.37% of 200,000 active; AID 1251;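 active means inhibition from about 30%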;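 further: bluetongue infection of BSR cells; cell survival read as ATP light after 72 h; 0% = infected wells without compound and 100% = uninfected wells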
# Mtb betalactam – beta-lactam sensitization of Mtb H37Rv. M. tuberculosis H37Rv growth with meropenem, percent inhibition; hits of this screen are not shown here. inhibition, % at 25 µM. 0.27% of 330,000 active. AID 434955;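 active means about 74% or more and at least 40 points above the plate without the antibiotic, then above 30% in a dose series; inconclusive means first-round hits that could not be retested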;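 further: growth measured after seven days incubation then overnight dye step; 0% = bacteria only wells and 100% = bacteria with antibiotic; twin plates without the antibiotic show which effects depend on it; some results filed as inactive read as strong as hits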
# RecA splice inh – inhibitors of M. tuberculosis RecA intein splicing | 0.75% of 290,000 active | inhibition, %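 (about 9 µM by stock and volumes)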 | cell-free RecA intein splicing, fluorescence | P9WHJ3; in the data active means inhibition above about 30%; inconclusive means no clear call, values can overlap the other calls;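 further: 0% = vehicle wells and 100% = reference inhibitor control wells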
# Target sequence (P9WHJ3 whole entry, looked up, canonical isoform): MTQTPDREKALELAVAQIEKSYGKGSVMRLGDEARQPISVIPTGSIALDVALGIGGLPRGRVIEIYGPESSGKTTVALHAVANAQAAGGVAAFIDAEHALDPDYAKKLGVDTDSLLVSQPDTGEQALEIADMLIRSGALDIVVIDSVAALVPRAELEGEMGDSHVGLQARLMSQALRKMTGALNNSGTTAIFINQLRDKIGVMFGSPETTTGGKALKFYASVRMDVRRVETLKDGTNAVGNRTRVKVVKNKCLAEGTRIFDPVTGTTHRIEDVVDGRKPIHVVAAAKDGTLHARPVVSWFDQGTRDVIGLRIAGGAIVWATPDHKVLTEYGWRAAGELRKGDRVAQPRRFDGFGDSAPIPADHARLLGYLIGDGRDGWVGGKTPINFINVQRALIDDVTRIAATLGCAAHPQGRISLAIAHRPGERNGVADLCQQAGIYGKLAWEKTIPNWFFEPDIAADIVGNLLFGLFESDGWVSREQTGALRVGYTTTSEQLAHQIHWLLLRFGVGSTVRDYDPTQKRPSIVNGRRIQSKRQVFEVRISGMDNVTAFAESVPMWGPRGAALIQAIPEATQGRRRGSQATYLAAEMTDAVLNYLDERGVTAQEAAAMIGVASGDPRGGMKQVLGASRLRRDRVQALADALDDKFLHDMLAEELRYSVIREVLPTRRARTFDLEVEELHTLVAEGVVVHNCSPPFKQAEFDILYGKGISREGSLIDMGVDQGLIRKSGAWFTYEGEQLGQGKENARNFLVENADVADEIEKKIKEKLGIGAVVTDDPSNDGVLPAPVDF
# YopH PTP inh – blocks Yersinia enterocolitica YopH tyrosine phosphatase | 0.16% of 140,000 active | fluorescence Ex485/Em525 | inhibition, %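 (about 10 µM by stock and volumes)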;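 active means inhibition of 50% or more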;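 further: controls were vehicle for no effect and minimum signal wells for full effect; inactives centre near -20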
# Arbovirus anti repeat – also measured in Arbovirus anti; calls as there; inhibition, %; measured here: 10K subset replicate screen; many hits read low in the repeat;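 first of two repeat runs on a subset; 0% = infected and 100% = uninfected wells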
# Active calls of the source: *; ? = inconclusive; . = no result given. An excerpt. The share of hits here may be higher or lower than overall.
SMILES,Mtb growth,Arbovirus anti,Mtb betalactam,RecA splice inh,YopH PTP inh,others
CN1/C(=C\C=Nc2ccccc2)C(C)(C)c2ccccc21,4%,15,8,-6.5,-18,
Cc1ccc(CSc2nnc(CC(=O)Nc3ccc(C)cc3)n2C)cc1,-2%,2,-4,-9.2,-31,
Cc1onc(-c2c(F)cccc2Cl)c1C(=O)NCCc1ccncc1,.,.,-5,0.5,.,
CN(c1ccc(C(=O)Nc2ccc3c(c2)n(C)c(=O)n3C)cc1)S(C)(=O)=O,.,.,5,0.3,.,
CC(C)[C@H](NC(N)=O)C(=O)NNC(=O)COc1cccc(C(F)(F)F)c1,-4%,.,10,4.6,.,
CCOC(=O)c1cnn2c(N)c(C#N)nnc12,1%,9,-1,0.4,1,
CCN(CC(=O)Nc1c(F)cccc1F)C(=O)c1ccc2c(c1)S(=O)(=O)N=C1CCCCCN12,.,.,-12,4.1,.,
O=C(NCCN1CCOCC1)c1ccc(NC(=O)C2COc3ccccc3O2)cc1 (stereo not drawn),7%,7,-9,-0.1,.,
CCCCn1c(N)c(N(CCOC)C(=O)CSc2nnc(-c3ccncc3)n2CCC)c(=O)[nH]c1=O,.,.,0,-1.7,.,
Cc1ccc(C(=O)N/C(=C\c2cccnc2)c2nc3ccccc3[nH]2)cc1,4%,3,-6,-1.2,-13,
Cc1ccc(NC(=O)c2cc(S(=O)(=O)N3CCOCC3)ccc2F)c(C)c1,1%,11,-6,1.2,-21,
C=CCC(NCc1ccccc1)c1ccc(Cl)cc1 (stereo not drawn),-5%,2,1,2.6,-7,
CCOc1ccc(N(CC(=O)Nc2ccc(OC)cc2)C2=NC3CS(=O)(=O)CC3S2)cc1 (stereo not drawn),.,.,0,1.2,.,
O=C(COc1coc(CN2CCc3ccccc32)cc1=O)Nc1cccc(F)c1,.,.,-1,-1.8,.,
Cc1ccc(S(=O)(=O)c2cn(C)c3cc(N4CCOCC4)c(F)cc3c2=O)cc1,.,.,6,-1.7,.,
COc1ccc(OCC(=O)N2CCc3c([nH]c4ccccc34)C2c2ccccn2)cc1 (stereo not drawn),3%,-3,4,2.7,.,
C[N+]1(C)CCC(OC(=O)C(c2ccccc2)c2ccccc2)CC1,-4%,.,-8,1.8,.,
Cc1cc(N2CCN(c3ccccc3F)CC2)nc2cc(O)ccc12,3%,-21,4,-91,-34,
Cc1c(NC(=O)CSc2nc3ccccc3[nH]2)c(=O)n(-c2ccccc2)n1C,-7%,0,.,1.0,-44,
COc1ccc(NC(=O)c2cccc(Cn3cc(Br)c([N+](=O)[O-])n3)c2)c(C)c1,0%,1,-2,.,.,
Cc1c(C)n(C)c2ccc(C(=O)NCCCN3CCCCC3)cc12,.,.,-6,0.6,.,
Cc1noc(C)c1COC(=O)CCc1nc2ccccc2c(=O)[nH]1,-10%,3,-8,0.7,-35,
Cc1cccc(NC(=O)Nc2ccccn2)c1C,-1%,.,-8,-1.6,.,
CCN(CCO)c1nc(N2CCCCC2)c2cnn(C)c2n1,.,.,2,3.3,.,
COc1ccc(-c2cn[nH]c2-c2ccc(O)cc2O)cc1,.,.,-2,1.2,.,
O=C(Nc1ccc2c(c1)OCCO2)c1ccc(S(=O)(=O)N2CCCCC2)cc1,1%,-23,-2,1.7,-23,
CCn1cc(C(=O)OCC(=O)c2cc(C)n(-c3ccccc3F)c2C)c(=O)c2ccc(C)nc21,-1%,-3,-2,-1.8,-44,
CC(=O)c1cc(C(=O)Nc2ccccc2C(=O)O)oc1C,1%,12,-2,1.7,-33,
CN(C)/C=N/c1sc2c(c1C(N)=O)CCCC2,-2%,4,1,-4.2,.,
O=C(O)CCN1C(=O)c2ccc(NC(=O)C(c3ccccc3)c3ccccc3)cc2C1=O,-11%,.,-3,-4.9,.,
CSc1ncccc1C(=O)OCc1ccc(C#N)cc1,6%,-3,-9,0.2,-12,
CCNC(=S)N/N=C/c1ccc(OCC(=O)Nc2ccc(OC)cc2)c(OC)c1,1%,7,-5,0.2,-10,
CC(C)(C)OC(=O)NCCc1nnc(SCC(N)=O)o1,0%,1,-1,1.4,2,
O=C1C=C(Nc2ccccc2)CC(c2ccccc2)C1 (stereo not drawn),6%,-17,0,0.9,.,
Cc1nc(NC(=O)c2oc3ccccc3c2C)sc1C(=O)N(C)C,-10%,-4,5,0.1,20,
O=C(CCC(=O)N1CCOc2ccccc21)NCCN1CCOCC1,.,.,-2,0.9,.,
COC(=O)C1=C[C@@H](C(=O)OC)[C@@H]2C3=C(C(=O)[C@]2(C)NC(=O)c2ccccc2)[C@H](C)n2c(=O)n(C)c(=O)n2[C@@H]3C1,-8%,.,-2,-1.9,.,
COc1ccccc1NC(=O)C1=C(C)Nc2nnnn2C1c1cccc(C)c1 (stereo not drawn),0%,-3,3,3.7,-37,Arbovirus anti repeat=-9
O=C(COC(=O)[C@H](Cc1ccccc1)N1C(=O)c2ccccc2C1=O)Nc1ccc2c(c1)OCO2,-9%,6,18,7.9,-31,
CCCCn1c(=O)cc(C)n(-c2ccccc2)c1=O,.,.,10,-2.5,.,

# Compounds from the list above that have an NH in an aromatic ring (6):
SMILES,Mtb growth,Arbovirus anti,Mtb betalactam,RecA splice inh,YopH PTP inh,others
CCCCn1c(N)c(N(CCOC)C(=O)CSc2nnc(-c3ccncc3)n2CCC)c(=O)[nH]c1=O,.,.,0,-1.7,.,
Cc1ccc(C(=O)N/C(=C\c2cccnc2)c2nc3ccccc3[nH]2)cc1,4%,3,-6,-1.2,-13,
COc1ccc(OCC(=O)N2CCc3c([nH]c4ccccc34)C2c2ccccn2)cc1 (stereo not drawn),3%,-3,4,2.7,.,
Cc1c(NC(=O)CSc2nc3ccccc3[nH]2)c(=O)n(-c2ccccc2)n1C,-7%,0,.,1.0,-44,
Cc1noc(C)c1COC(=O)CCc1nc2ccccc2c(=O)[nH]1,-10%,3,-8,0.7,-35,
COc1ccc(-c2cn[nH]c2-c2ccc(O)cc2O)cc1,.,.,-2,1.2,.,

# (further entries)
SMILES,Mtb growth,Arbovirus anti,Mtb betalactam,RecA splice inh,YopH PTP inh,others
COc1ccc(Cl)cc1NC(=O)CSc1nnc(COc2ccccc2)n1C,1%,6,-2,4.5,7,
COc1ccc(N(C(=O)c2snc(C(N)=O)c2N)C(C(=O)NCC2CCCO2)c2ccc3ncccc3c2)cc1OC (stereo not drawn),.,.,-4,-0.8,.,
Cc1ccc(N2C(=O)NC(NC(=O)c3ccc(Cl)cc3)(C(F)(F)F)C2=O)cc1 (stereo not drawn),-2%,11,5,2.3,-22,
CC(NC(=O)C1CCCN1S(=O)(=O)c1cccc2cccnc12)c1ccccc1 (stereo not drawn),-6%,0,4,.,-53,
CCN(CC)C(=O)CSc1nc2ccccc2o1,-7%,-3,0,-2.2,-3,
C=CCn1c(CCC(O)COCCCCC)n[nH]c1=S (stereo not drawn),-7%,.,-13,0.2,.,
COCC(O)CSc1nc(C)[nH]c1[N+](=O)[O-] (stereo not drawn),-3%,5,4,12,-18,
O=C(NCCN1CCOCC1)c1nn2c(c1Cl)NC(c1ccccc1)CC2C(F)(F)F (stereo not drawn),-15%,5,4,0.0,6,
NS(=O)(=O)c1ccc(-c2ccc(C=O)o2)cc1,2%,-3,2,4.3,.,
Cn1c(=O)c2c(nc(-n3ccnc3)n2C)n(C)c1=O,-2%,0,-4,-0.1,-21,
COc1cccc(NS(=O)(=O)c2cc3c(cc2C)N(C(C)=O)CCO3)c1,.,.,-2,1.4,.,
Cc1nn(-c2ccccc2)c2nc(N)c(C#N)c(-c3ccc(C(C)(C)C)cc3)c12,-3%,.,-8,-2.8,.,
Cc1onc(-c2ccccc2)c1C(=O)NCCc1ccc(Cl)cc1,-8%,-8,-6,-3.4,-20,
O=C(NCC12CC3CC(CC(C3)C1)C2)c1nn2cccnc2c1Cl,-1%,-14,.,-2.2,-6,
Cc1cc(C)c2cc3c(N)c(C(=O)Nc4c(C)[nH]c(=O)[nH]c4=O)sc3nc2c1,10%,9,9,-9.4,-17,
CCOC(=O)C(CCCCP(=O)(c1ccccc1)c1ccccc1)(NC(C)=O)C(=O)OCC,-1%,.,-5,-0.3,.,
CCCn1c(-c2ccc(OC)cc2)nc2c(=O)n(C)c(=O)[nH]c21,18%,-2,-7,-0.7,-2,
FC(F)(F)c1cc(Sc2ccccc2)nc(-c2ccccn2)n1,4%,-3,0,3.1,-15,
Oc1cccc(NC(=S)Nc2ccc(SC(F)F)cc2)c1,?,17,58,1.1,-23,
CCOc1ccc2nc(NCCNC(=O)C3CC3)c(C)cc2c1,-8%,.,-11,1.3,.,
CCCCNC(=O)/C(C#N)=C/c1ccc2c(c1)OCCO2,.,-9,8,2.9,-26,
Cc1ccc(NS(=O)(=O)c2ccc3c(c2)n(C)c(=O)c(=O)n3C)c(C)c1,.,.,6,2.0,.,
Cc1ccc(-c2cc(-c3cccc(F)c3)n[nH]2)c(O)c1,8%,12,100,8.5,-7,
CCS(=O)(=O)Nc1ccc(C(=O)OC)cc1,6%,-3,-4,-0.9,-19,
Cc1ccc(-n2nc(C)c(C(=O)O)n2)c(C)c1,5%,1,7,11,-7,
CC(C)c1ccc2[nH]c(O)c(N=NC(=O)c3cccc(S(=O)(=O)Nc4ccccc4Cl)c3)c2c1,1%,-10,-3,1.7,-2,
CCN(CC)C(=O)CSc1nc2ccccc2c(=O)n1CCC(=O)NCc1ccc(F)cc1,1%,-2,2,-0.2,-29,
O=C(Nc1ccc(OCC(F)(F)C(F)F)cc1)c1ccncc1,-1%,-13,-4,-5.4,.,
CCOc1ccc(Cl)cc1CNCCNCC(C)O (stereo not drawn),0%,-8,6,9.9,4,
C[C@H](NC(=O)c1nc[nH]c1C(=O)NCCCCCN)C(=O)OCc1ccccc1,.,.,-9,0.3,.,
O=C(Nc1ccc(S(=O)(=O)Nc2ncccn2)cc1)C1=NN(c2ccccc2)C(=O)CC1,-13%,.,-9,1.7,.,
CCN(CC)C(=O)Cn1cc(C(=O)C(=O)N2CCN(c3ccccc3)CC2)c2ccccc21,.,.,88,-1.3,.,
O=C(NC1CCCN(Cc2ccc(Cl)cc2)C1)c1cccc(N2CCCC2=O)c1 (stereo not drawn),.,.,-19,-0.3,.,
CCOC(=O)CC1C(=O)NCCN1C(=O)c1ccc(Cl)cc1 (stereo not drawn),.,.,-3,-0.5,.,
Cc1ccc(C(=O)CC2(O)C(=O)N(C)c3ccccc32)s1 (stereo not drawn),-11%,4,2,-1.1,.,
CCNc1nc(Oc2ccc(C(=O)OC)cc2)nc(N(C)C)n1,2%,-3,10,-1.2,24,
Cc1cc(NC2CCCCC2)nc(-c2ccccc2O)n1,10%,-1,99,3.6,-26,
CC(C(=O)NCC1CCCO1)N(C(=O)c1snc(C(N)=O)c1N)c1ccccc1 (stereo not drawn),-5%,5,-1,.,3,
CSC1=NCCN1C(=O)Cc1ccc(-c2ccccc2)cc1,-11%,-7,2,1.4,.,
CC(c1ccon1)N(C)C(=O)CCc1nnc(Cc2ccc(-c3ccccc3)cc2)o1 (stereo not drawn),-7%,3,-1,1.5,.,
CCN(CC)c1ccc(CNCc2cccs2)cc1,4%,6,-1,-4.7,.,
Cc1c(C(=O)O)sc(=S)n1-c1ccc(Cl)cc1,-6%,-4,4,-0.4,4,
OCCNc1nc2ccccc2n1-c1ccccc1,-2%,2,-5,-2.1,-12,
O=C(CCn1cnc2ccccc2c1=O)Nc1ccc(S(=O)(=O)N2CCCC2)cc1,2%,2,18,-0.2,-1,
CCc1cccc(C)c1NC(=O)COC(=O)c1cc([N+](=O)[O-])ccc1N1CCOCC1,.,.,5,0.3,.,
Cc1cccc(CC(=O)Nc2ccc(C(=O)N3CCCCC3)cc2)c1,.,.,40,-2.3,.,
CCc1ccc(CN2CCC(n3nccc3NC(=O)c3ccccc3)CC2)o1,.,.,0,-0.6,.,
CC(C)C(=O)Nc1cccc(C(=O)NCc2ccc3c(c2)OCO3)c1,-2%,-1,-4,0.0,-4,
CCn1c(O)c(/C=C2\C=Nc3ccccc32)sc1=Nc1ccc(C)cc1,-3%,12,6,-1.9,-2,
CCOc1ccc2nc(NC(=O)CN3CCC(n4nnc5cc(F)ccc54)CC3)sc2c1,19%,-19,99,3.3,-50,
# (listing goes on)
SMILES,Mtb growth,Arbovirus anti,Mtb betalactam,RecA splice inh,YopH PTP inh,others
COc1ccc(S(=O)(=O)NCCc2cn3nc(C)c(C)nc3n2)cc1F,.,.,3,-166,.,
CN(CCC1CCCCO1)C(=O)CCc1nnc(CCCCc2ccccc2)o1 (stereo not drawn),1%,5,-1,1.6,.,
O=C(Nc1ccc2nccnc2c1)c1ccco1,5%,3,7,1.2,.,
Cc1ccc(N2C(=O)c3cccc4c(N)ccc(c34)C2=O)c2cccnc12,2%,.,3,-9.6,.,
COc1ccc(N(CC(=O)NCCSCc2cccc(Cl)c2)S(C)(=O)=O)cc1,.,.,2,1.1,.,
